Screens (PubChem)
PINK1 expr mod – A Quantitative High throughput Screen to Identify Chemical Modulators of PINK1 Expression; PINK1 immunofluorescence, high-content cytometry, 24 h; Potency, µM (series often up to 76.6 µM), without a hit: top-dose activation (PINK1 increase), most hits filed as activators; 410,000 compounds, 0.2% hits; AID 624263, 2012; active = well fitted activation curve with a large enough effect; inconclusive = small, poorly fitted or top-dose-only effect; inactive = flat fitted curve, though single readings scatter; cell line not stated here;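 note: potency is the fitted concentration of half-maximal effect; % of control where 0% means no effect; nearly all actives have a fitted effect of over 65% in size; a mitochondrial uncoupler was the plate control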
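Readout is PINK1 immunofluorescence, quantified alongside mitochondrial, cell and nuclear markers by laser-scanning microplate cytometry. Cells from a stable line were exposed to compound titrations (5 concentrations) for 24 hours, with CCCP controls.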
TRPML1 blocker – qHTS for Inhibitors of the Human Mucolipin Transient Receptor Potential 1 (TRPML1); AID 624415, 2012; Mucolipin-1 (Homo sapiens), Q9GZU1; activity change, negative = inhibition, % (no concentration beside the values); 390,000 compounds, 0.02% hits; TRPML1-inducible cells, Ca2+ dye fluorescence, FDSS; active compounds read low; inhibition of EC80 agonist-evoked calcium signal; in the data active means activity change below about -50%; inconclusive means about -30% to -50%; inactive means above about -30%;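 note: stimulus is agonist 54-4 at its EC80 concentration; % is set by controls: 0 for no effect and ±100 for the full control effect; compound concentration not given in the record; the text of the record puts the active cut at -80%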
Target sequence (Q9GZU1 whole entry, looked up): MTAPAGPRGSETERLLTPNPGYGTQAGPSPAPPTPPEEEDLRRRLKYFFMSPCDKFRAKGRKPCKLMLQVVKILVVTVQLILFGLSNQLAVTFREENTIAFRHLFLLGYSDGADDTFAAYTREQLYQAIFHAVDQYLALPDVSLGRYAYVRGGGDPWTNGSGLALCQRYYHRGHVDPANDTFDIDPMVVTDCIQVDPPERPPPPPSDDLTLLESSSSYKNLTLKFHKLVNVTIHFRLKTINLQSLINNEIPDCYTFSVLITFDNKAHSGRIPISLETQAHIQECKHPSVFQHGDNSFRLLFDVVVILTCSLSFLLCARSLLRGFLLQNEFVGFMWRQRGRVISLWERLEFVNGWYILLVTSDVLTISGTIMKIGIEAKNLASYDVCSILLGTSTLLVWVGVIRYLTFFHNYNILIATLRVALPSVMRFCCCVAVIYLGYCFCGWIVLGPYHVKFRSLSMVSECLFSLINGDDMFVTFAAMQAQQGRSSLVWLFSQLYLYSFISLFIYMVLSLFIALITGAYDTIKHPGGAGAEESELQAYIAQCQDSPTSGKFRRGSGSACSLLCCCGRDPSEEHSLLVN
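Tet-induced TRPML1-DL cells loaded with Ca8 no-wash calcium dye were read kinetically on FDSS. Compound addition was followed by EC80 agonist 54-4 (4 uM final); inhibition was read over 110 s.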
Six1-Eya2 blk – qHTS Assay for Inhibitors of the Six1/Eya2 Interaction | Homeobox protein SIX1 (Homo sapiens) + Protein phosphatase EYA2 (Homo sapiens), … | AlphaScreen GST-Six1/His-Eya2 binding, biochemical; active compounds read low; control for the full effect not named in the record | activity change, % (test concentration not listed) | 360,000 compounds, 0.56% hits | AID 651725, 2012; in the data active = activity change below about -65%; inconclusive = about -30% to -65%; inactive = above about -30%; note: % is set by controls: 0 for no effect and ±100 for the full control effect
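GST-Six1 + His-Eya2 (5X stock: 250/500 nM); Tris pH 8.0, 300 mM NaCl, 0.05% BSA, 0.02% Tween 20; GSH donor/Ni acceptor beads; 1 h 37 °C dark; AlphaScreen readout.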
TRPML1 agonist – qHTS for Agonists of the Human Mucolipin Transient Receptor Potential 1 (TRPML1). activation, % (concentration not given with the values). 410,000 compounds, 0.12% hits. TRPML1-expressing cells, Ca2+ dye fluorescence, FDSS; host cell line not named in the record; reference of the full effect not given here; in the data active = activation above about 50%; inconclusive = about 30% to 50%; inactive = below about 30%; note: 0% is about no effect; the text of the record puts the active cut at 80%
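Tetracycline-induced TRPML1-DL cells are seeded and incubated overnight before loading with a no-wash Ca2+ dye and quencher. Agonist activity is taken from the 110 s fluorescence read following compound pin-transfer on an FDSS, before EC80 54-4 challenge.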
D2 agonist – Beta-Arrestin HTS for Positive Allosteric Modulators of the Human D2 Dopamine Receptor: Agonists | activation, % (test concentration not listed) | 360,000 compounds, 0.084% hits | DiscoveRx PathHunter D2 beta-arrestin, luminescence, 90 min; 100% = 57 uM dopamine signal | AID 624465, 2012; in the data active = activation above about 40%; inconclusive = about 15% to 40%; inactive = below about 15%; note: compound concentration not given in the record; the text of the record calls up to 30% inactive
Target sequence (P14416 whole entry, looked up): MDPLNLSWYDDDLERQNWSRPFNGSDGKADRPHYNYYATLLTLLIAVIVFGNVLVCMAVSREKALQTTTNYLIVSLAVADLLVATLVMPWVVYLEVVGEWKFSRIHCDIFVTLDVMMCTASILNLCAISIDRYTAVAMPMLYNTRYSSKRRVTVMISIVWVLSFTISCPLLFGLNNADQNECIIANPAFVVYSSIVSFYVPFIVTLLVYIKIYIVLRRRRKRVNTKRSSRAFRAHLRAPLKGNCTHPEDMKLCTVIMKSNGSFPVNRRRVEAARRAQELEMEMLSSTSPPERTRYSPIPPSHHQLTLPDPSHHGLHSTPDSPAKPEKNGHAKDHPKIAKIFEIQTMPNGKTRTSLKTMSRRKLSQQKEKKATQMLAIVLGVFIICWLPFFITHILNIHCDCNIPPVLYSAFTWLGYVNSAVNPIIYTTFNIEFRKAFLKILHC
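Agonist mode: compounds alone added to overnight-plated D2 PathHunter cells for 90 min at 37 C, with 57 uM final dopamine (EC100) defining full response. Beta-arrestin recruitment detected by chemiluminescent reagent, read after 1 h at ambient temperature.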
D2 potentiator – Beta-Arrestin HTS for Positive Allosteric Modulators of the Human D2 Dopamine Receptor: Potentiators; 360,000 compounds, 0.23% hits; DiscoveRx D2 beta-arrestin cells, luminescence, 90 min; 100% = 57 uM dopamine signal; potentiation, % (no concentration beside the values); active = potentiation of 50% or more; inconclusive = 30% to 50%; inactive = 30% or less;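 note: compound concentration not given in the record; tested on top of an EC20 dose of dopamine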
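PathHunter D2 cells, attached overnight at 37 deg C, received compound in DMSO plus dopamine at EC20 (50 nM final) for 90 min at 37 deg C. Beta-arrestin recruitment was read as luminescence after 1 h with detection reagent at ambient temperature.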
The depositor's hits bear a star; u = inconclusive; x = not tested or not shown; & = joins results of further samples; [ ] = dose if it differs, or a comment. No enrichment for hits; about 1% have a hit in one of these screens.

SMILES	PINK1 expr mod	TRPML1 blocker	Six1-Eya2 blk	TRPML1 agonist	D2 agonist	D2 potentiator
CCn1c(Cc2cccc3ccccc23)nnc1SCC(=O)Nc1nccs1	1.6%	40	-15	1.0	-2.5	-6
COc1ccc(CC(=O)N/N=C(\C)CC(=O)Nc2cccc(F)c2)cc1	-0.2%	u	3	0.9	4.2	-2
Cc1cc(C)nc(SC2CCCCC2NS(=O)(=O)c2ccccc2)n1 (configuration not stated)	0.9%	16	1	0.8	-2.2	-12
Cc1cccc(C)c1N(CC(=O)N1CCOCC1)S(C)(=O)=O	0.5%	11	1	-0.4	-2.7	-16
C[C@@]12CCC[C@H](O1)[C@@H]([C@H](O)c1ccccc1)O2	1.5%	30	7	-0.9	1.1	-16
COc1ccc([C@H]2CC(=O)C=C(c3cccc(Cl)c3)C2)cc1OC	0.5%	-13	5	2.5	-1.9	-4
Cc1onc(-c2ccccc2Cl)c1C(=O)N1CCOC12CCCCC2	-0.2%	-4	8	-0.7	-0.5	4
Cc1cc(C)c(C)c(S(=O)(=O)Nc2ccc(OCC(=O)O)cc2)c1C	1.4%	2	5	-0.1	0.7	-8
CCOc1ccccc1NC(=O)c1cc(=O)c2ccc(C)cc2o1	3.8%	-20	x	-0.1	x	x
COc1ccc(-n2cnnc2SCC(=O)NC2CCS(=O)(=O)C2)cc1 (configuration not stated)	3.1%	-3	8	-0.1	2.1	2
CCC(C)c1ccc(NC(=O)COC(=O)C2CCCC2)cc1 (configuration not stated)	-1.0%	-7	20	2.0	0.0	-3
COc1cc(C(=O)NCC(=O)NCC2COc3ccccc3O2)cc(OC)c1OC (configuration not stated)	-0.3%	14	5	0.1	-3.4	-21
CC(OC(=O)C(C)N1C(=O)C2C3C=CC(C4CC34)C2C1=O)C(=O)c1ccccc1 (configuration not stated)	-0.4%	-7	2	0.8	0.3	11
CC(=O)NNc1nc(-c2ccccc2)c2cc(Br)ccc2n1	-1.6%	-14	1	0.8	-1.0	1
CC(=O)Nc1cccc(-c2csc(C(O)c3ccc(F)cc3)n2)c1 (configuration not stated)	3.9%	x	6	-0.5	8.3	-1
CCCC1(CCC)NC(=O)N(CC(=O)N2CCN(C(=O)c3ccco3)CC2)C1=O	-1.4%	7	4	-0.1	-1.9	-9
Cc1ccccc1S(=O)(=O)N(C)C[C@H]1OCc2cn(nn2)CCCC(=O)N([C@H](C)CO)C[C@@H]1C	8.7%	-9	21	0.1	-3.7	-7
Cc1ccccc1C(=O)NCC(=O)OC1CCCCC1=O (configuration not stated)	-0.4%	-11	19	0.5	-6.1	-19
Cc1ccccc1C1c2[nH]c3ccccc3c2CCN1C(=O)c1ccc(=O)n(C)n1 (configuration not stated)	2.1%	-11	-5	4.5	-4.2	-7
O=C(Cn1cc([N+](=O)[O-])cn1)Nc1ccccn1	x	11	-13	0.0	-2.2	0
Cc1nc2ccc(-c3nc4cc(N)ccc4o3)cc2[nH]1	-5.4%	-15	u	3.6	2.1	8
C=CCNC(=O)NC(=O)CSc1nnc(C(F)(F)F)n1C	0.2%	-26	3	1.1	-2.9	-2
C/C(=N/Nc1cc(-c2ccccc2)nc(-c2ccccc2)n1)c1ccc(O)cc1	-2.1%	16	-8	0.6	-0.8	2
N#Cc1c(NC(=O)COC(=O)c2ccc(O)cc2O)sc2c1CCC2	1.3%	-15	-9	1.8	11	-2
Cc1ccc(-c2nc3ncccn3c2Nc2ccc3c(c2)OCCO3)cc1	0.5%&-1.5%	5&47	-14	-0.9&0.7	2.8	3
CN(Cc1ccc(-n2cccn2)cc1)Cc1cn(C)nc1-c1ccccc1F	0.1%	-13	1	0.8	-2.1	-9
Cc1cc(C)cc(N(C(C)C(=O)N2CCCCC2)S(C)(=O)=O)c1 (configuration not stated)	0.9%	-18	5	-1.1	-1.7	-11
C/C=C/C(=O)Nc1ccccc1Br	1.7%[38.3 µM]	-4	6	0.2	-4.9	-17
O=C(CN1c2cccc3cccc(c23)S1(=O)=O)NCCc1ccc(F)cc1	0.6%	-9	6	3.4	-1.2	-4
COc1cccc(NC(=O)CN(C)C(=O)CC2CC3CCC2C3)c1 (configuration not stated)	-0.7%	-7	0	0.9	-3.4	-9
O=C(Nc1cc(Br)ccc1O)c1cnn2c(C(F)F)cc(C3CC3)nc12	2.2%	-8	2	0.0	-0.3	-9
CC(C)C[C@@H]1COc2cc(N3CCSCC3)ccc2S(=O)(=O)N1	5.4%	x	4	-1.0	x	x
Cc1cc(C(=O)Cn2nc(C(=O)O)c3ccccc3c2=O)c(C)n1CC(F)(F)F	1.6%	1	-6	0.2	-1.5	1
CC1CCCN(S(=O)(=O)c2ccc(S(=O)(=O)NC(C)c3cccs3)cc2)C1 (configuration not stated)	-1.0%[38.3 µM]	-12	-5	-0.5	0.9	-9
O=C(Cc1cccc(NC(=O)C2CCCN(C(=O)CCc3ccccc3)C2)c1)Nc1cccc(C(=O)N2CCCCC2)c1 (configuration not stated)	1.5%	9	-6	-0.3	1.5	x
O=C(Nc1ccc(N2CCOCC2)cc1)C1CCCN(S(=O)(=O)c2ccccc2)C1 (configuration not stated)	-0.8%	-3	-2	-0.7	5.2	16
O=c1[nH]c(Cc2cccc(C(F)(F)F)c2)nc2ccccc12	-1.0%	5	11	1.7	-0.8	-9
O=C(O)c1ccc(Nc2c3ccccc3nc3ccccc23)cc1	0.2%	0	3	1.8	-0.5	-3
Cc1cc(Br)ccc1NC(=O)CNC(=O)COc1ccccc1C	-2.5%	-6	11	1.5	-5.1	-13
Cn1c(N)c(C#N)c2c(c1=S)COC(C)(C)C2	0.3%	2	8	1.4	-2.7	2

Reformatted: eleven of the compounds above
Each structure is followed by: PINK1 expr mod, TRPML1 blocker, Six1-Eya2 blk, TRPML1 agonist, D2 agonist, D2 potentiator
> COc1cccc(NC(=O)CN(C)C(=O)CC2CC3CCC2C3)c1 (configuration not stated)
→ -0.7%, -7, 0, 0.9, -3.4, -9
> O=C(Nc1cc(Br)ccc1O)c1cnn2c(C(F)F)cc(C3CC3)nc12
→ 2.2%, -8, 2, 0.0, -0.3, -9
> CC(C)C[C@@H]1COc2cc(N3CCSCC3)ccc2S(=O)(=O)N1
→ 5.4%, x, 4, -1.0, x, x
> Cc1cc(C(=O)Cn2nc(C(=O)O)c3ccccc3c2=O)c(C)n1CC(F)(F)F
→ 1.6%, 1, -6, 0.2, -1.5, 1
> CC1CCCN(S(=O)(=O)c2ccc(S(=O)(=O)NC(C)c3cccs3)cc2)C1 (configuration not stated)
→ -1.0%[38.3 µM], -12, -5, -0.5, 0.9, -9
> O=C(Cc1cccc(NC(=O)C2CCCN(C(=O)CCc3ccccc3)C2)c1)Nc1cccc(C(=O)N2CCCCC2)c1 (configuration not stated)
→ 1.5%, 9, -6, -0.3, 1.5, x
> O=C(Nc1ccc(N2CCOCC2)cc1)C1CCCN(S(=O)(=O)c2ccccc2)C1 (configuration not stated)
→ -0.8%, -3, -2, -0.7, 5.2, 16
> O=c1[nH]c(Cc2cccc(C(F)(F)F)c2)nc2ccccc12
→ -1.0%, 5, 11, 1.7, -0.8, -9
> O=C(O)c1ccc(Nc2c3ccccc3nc3ccccc23)cc1
→ 0.2%, 0, 3, 1.8, -0.5, -3
> Cc1cc(Br)ccc1NC(=O)CNC(=O)COc1ccccc1C
→ -2.5%, -6, 11, 1.5, -5.1, -13
> Cn1c(N)c(C#N)c2c(c1=S)COC(C)(C)C2
→ 0.3%, 2, 8, 1.4, -2.7, 2

(further entries)
SMILES	PINK1 expr mod	TRPML1 blocker	Six1-Eya2 blk	TRPML1 agonist	D2 agonist	D2 potentiator
O=c1c(Cl)c(Cl)cnn1Cc1nnc(-c2ccccc2Br)o1	-0.2%	10	-8	-0.6	2.7	-6
COc1ccc(CCNC(=O)Cc2c(C)c3c(cc(C)c4c(C)coc43)oc2=O)cc1OC	-0.5%	16	x	0.2	x	x
O=C(Cc1cccs1)N1CCCC(c2nc(-c3ccc(S(=O)(=O)N4CCCC4)cc3)no2)C1 (configuration not stated)	0.7%	-6	4	0.4	1.4	-1
COc1ccc(C2CC(=O)Nc3c2c(C)nn3-c2nncc(-c3ccc(C)cc3)n2)c(OC)c1OC (configuration not stated)	2.1%	-1	x	1.7	x	x
COc1cccc(C(=O)N2c3ccccc3Sc3ccccc32)c1	u	-5	-9	0.6	-2.9	-9
COC(=O)c1ccccc1NC(=O)C1CCN(C(=O)c2cc(OC)c(OC)c(OC)c2)CC1	-0.7%	-6	4	-1.1	1.6	11
COc1ccc(/C=C/C(=O)N2c3ccccc3Sc3ccc(C(F)(F)F)cc32)cc1	5.2%	9	-17	1.0	-1.8	-29
COCCn1c(SCC(N)=O)nnc1-c1c[nH]c2ccccc12	0.0%	-9	0	0.3	-3.1	-2
COc1ccc([N+](=O)[O-])cc1N(CC(=O)N1CCOCC1)S(C)(=O)=O	-0.9%	-2	26	-0.2	-4.7	-1
O=C(CN(C1CCCCC1)S(=O)(=O)c1ccccc1)NCC1CCCO1 (configuration not stated)	0.3%	24	27	0.5	-1.9	-5
O=C(Cn1c2[n+](c3ccc(C(F)(F)F)cc31)CCCCC2)Nc1ccc(Br)cc1	1.4%	11	3	-0.4	-2.6	-9
CCC(C)c1ccccc1OCCOCCN1CCCC1 (configuration not stated)	-2.6%	6	7	0.6	0.7	-27
COC(=O)CSc1nc(SC)nc2c1sc1nc(-c3ccco3)c3c(c12)CC(C)(C)OC3	2.0%	20	1	-0.1	-2.9	-5
O=C(NCc1cccc(C(F)(F)F)c1)c1ccc2sc(COCCO)nc2c1	0.0%	-14	-3	0.9	-3.9	-11
O=S(=O)(Nc1ccc2cn[nH]c2c1)c1ccc(Cl)s1	2.0%	-4	11	1.1	-1.0	1
CCCCN(CC)c1nc(-c2ccncc2)nc2ccccc12	-2.9%	24	24	2.3	0.4	-2
COc1ccccc1/C=C(/C(=O)OCC(=O)Nc1ccccc1C(C)C)c1ccccc1	-2.3%	-11	-1	1.9	-0.4	-8
COC(=O)c1ccc(C2=NOC(C)(c3nnc(Cc4ccccc4)o3)C2)cc1 (configuration not stated)	2.3%	8	1	-1.3	-0.2	-55
COc1cccc2sc(N(Cc3cccnc3)C(=O)C3CCCCC3)nc12	7.6%	18	x	1.4	x	x
COC(=O)C1CCN(C(=O)/C=C/c2ccc(OC)cc2)CC1	-1.3%	0	-2	-0.7	-1.7	-12
Cc1ccc(S(=O)(=O)N2CCN(C(=O)c3ccccn3)CC2)cc1	1.8%	-11	-9	0.5	12	-10
Cc1ccccc1C(=O)Nc1ccnn1C1CCN(Cc2ccccn2)CC1	1.4%	-8	2	-0.1	-1.0	-4
Cc1cccc(NC(=O)CSc2nnnn2C)n1	-0.8%	u	9	1.6	-0.1	8
